Biofilm kill mix – mixtures killing C. albicans biofilm; inhibition, % at 7.6 µM; AID 1242; hit rate 0.02% among 120,000; C. albicans biofilm persisters + clotrimazole, fluorescence viability; primary screen in compound mixtures of four per well;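 active = inhibition above 30.3% in the primary screen of four-compound pools, then above 30% when the compound was retested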;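 note: compounds exposed to preformed 24 h biofilms for 48 h; the number belongs to the whole pool; some results filed as inactive read as strong as hits; inactives centre near 12; 0% = biofilm with clotrimazole alone and 100% = kill control; retested singly at about 60 µM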
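Test system: C. albicans biofilms. Buffer or medium: RPMI/MOPS medium, pH 7.0. Timing: 48 h compound exposure at 37 °C. Technique: Alamar Blue fluorescence. Evaluation: percent inhibition of biofilm viability.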
* = called active by the depositor. Not all compounds are listed. The share of hits here may be higher or lower than overall.

Compound | Biofilm kill mix
COc1cc(CCC(=O)OCC(=O)NC2CCCC(C)C2C)cc(OC)c1OC (stereo not given) | 11
O=c1cc(C(F)(F)F)[nH]c2ccc(OC(F)(F)F)cc12 | 7
CC(NC(=O)C1CCCN1S(=O)(=O)c1ccc2c(c1)n(C)c(=O)c(=O)n2C)c1ccccc1 (stereo not given) | 17
CSc1nnc(-c2cc[n+](C)cc2)n1CCO | 8
O=C(O)c1ccc(NCc2ccc(Br)cc2)cc1 | 18
CC(=O)c1c(C(C)=O)c(C)n(C(c2ccccc2)c2ccccc2)c1C | 12
CC(C)C1N(C(=O)CN2CCCCC2)CCN1S(=O)(=O)c1ccccc1 (stereo not given) | 7
CCOc1ccc(C(C)NC(=O)C2CCCC2)cc1 (stereo not given) | 8
COc1c2c(nc3occc13)C(CC=C(C)C)(OC)C(=O)C=C2 (stereo not given) | 8
CC(C)N1CCN(Cc2ccccc2-c2ccco2)CC1CCO (stereo not given) | 5
CC(C)CCOc1ccc(C(=O)N2CCCC2C(=O)O)cc1 (stereo not given) | 9
Cc1nnsc1C(=O)NNC(=O)c1ccc(C(F)(F)F)cc1 | 11
COc1ccc(C(=O)O/N=C(/c2ccccc2)c2ccncc2)cc1 | 19
COc1ccc(CN2CCOCCOCCOCC2)cc1 | 16
COC(=O)NNC(=S)NCc1ccc(C)cc1 | 1
NS(=O)(=O)c1ccc(NC(=O)CSc2nc3ccccc3n2-c2ccccc2)cc1 | 8
N/C(Cc1ccc(Cl)cc1Cl)=N\OC(=O)Cc1cccs1 | 10
Brc1ccccc1-n1nnc(-c2cccnc2)n1 | 16
O=C(CSCc1ccccc1Br)NC1CC1 | 19
Cc1ccc(N2C(=O)[C@@H]3C(C(=O)CN4C(=O)c5ccccc5C4=O)=NN[C@@H]3C2=O)c(C)c1 | 31
CCCCCCCCCC[n+]1cccc(C(=O)N(CC)CC)c1 | 18
CC(NCc1ccc2c(c1)OCO2)C(=O)N1CCc2ccccc21 (stereo not given) | 9
O=C(Nc1ccc(N2CCCC2)c(S(=O)(=O)Nc2cccc(C(F)(F)F)c2)c1)c1cccs1 | 11
CC(C)c1nc(Cl)c(C#N)c2c1CSC(C)(C)C2 | 25
Cc1[nH]c(=S)sc1Cc1ccc(F)cc1 | 15
Cc1cc(NC(=O)CSc2nnc(Nc3ccccc3F)s2)no1 | 8
O=C(Cc1ccccc1)Nc1cc(Cl)ccc1Sc1ccccc1 | 4
C(=C\c1ccccc1)/CNn1cnnc1 | 5
COc1ccc(NC(=O)C(=S)NC2CCCCC2)cc1 | 4
Cc1cc(N2CCN(c3ccc(F)cc3)CC2)n2ncnc2n1 | 8
Cc1ccc(NCCC(=O)c2cccs2)cc1C | 9
CC(C)=C1C(=O)NN(c2cccc(Cl)c2)C1=O | 19
CC(OC(=O)C1COc2ccccc2O1)C(=O)N(C)c1ccccc1 (stereo not given) | 10
COc1ccc(OC)c2[nH]c(C(=O)O)cc12 | 9
CCCCOCCCNC(=O)N[C@H](C(=O)O)C(C)CC (stereo not given in full) | 15
CCc1nc2ccc(C(=O)Nc3nnc(C)s3)cc2nc1CC | 22
OCC1(Cc2cccc(Cl)c2)CCCN(Cc2ccc3cc(F)ccc3n2)C1 (stereo not given) | 12
O=C(NN=C1CCCCC1)c1ccccc1OCc1ccc(F)cc1 | 16
Cc1nn(Cc2ccccc2)c(Cl)c1/C=C/C(=O)OCC(=O)NC(C)C(C)C (stereo not given) | 6
COCCNC(=S)N(CCc1c(C)[nH]c2ccc(Cl)cc12)Cc1cccs1 | 14

Overlap with the part before: five entries, followed by the next part.
Compound | Biofilm kill mix
CCc1nc2ccc(C(=O)Nc3nnc(C)s3)cc2nc1CC | 22
OCC1(Cc2cccc(Cl)c2)CCCN(Cc2ccc3cc(F)ccc3n2)C1 (stereo not given) | 12
O=C(NN=C1CCCCC1)c1ccccc1OCc1ccc(F)cc1 | 16
Cc1nn(Cc2ccccc2)c(Cl)c1/C=C/C(=O)OCC(=O)NC(C)C(C)C (stereo not given) | 6
COCCNC(=S)N(CCc1c(C)[nH]c2ccc(Cl)cc12)Cc1cccs1 | 14
COc1cc(OC)c(C(=O)CCC(=O)O)cc1OC | 11
COc1ccc(-c2nnc3ccc(SCC(=O)Nc4nc5ccc(C)cc5s4)nn23)cc1OC | -11
CCOC(=O)/C(C)=N/NC(=O)c1cccc([N+](=O)[O-])c1 | 4
O=C1CN(C(=O)CSc2nnc3ccccn23)c2ccccc2N1 | 19
CCN(CC)S(=O)(=O)c1ccc(NC(=O)COC(=O)c2ccc(NC(=O)CC#N)cc2)cc1 | 10
CN1CCC=C(C(=O)N2c3ccccc3Sc3ccc(Cl)cc32)C1 | 19
CCOC(=O)NC(O)C(=O)c1ccc(F)cc1 (stereo not given) | 17
O=C(COC(=O)[C@H](Cc1ccccc1)NC(=O)c1cccs1)Nc1cc(F)ccc1F | 14
Cc1nn(C)cc1S(=O)(=O)NC1CCCC1 | 5
Cc1nn(-c2ccccc2)nc1CNC(=O)C(C)Cc1ccccc1 (stereo not given) | 5
COc1ccc(C(=O)N/N=C(\C)CC(=O)Nc2cccc(C(F)(F)F)c2)cc1 | 14
Cc1cccnc1CN1CCN(Cc2nc(C(c3ccccc3)c3ccccc3)no2)CC1 | 10
COc1c(C)cc(C(=O)C2CCCN(C(=O)c3snnc3C)C2)cc1C (stereo not given) | -1
Clc1ccccc1-c1nc(-c2ccncc2)no1 | 13
O=C(Nc1ccccc1Br)C1CC(=O)N(c2ccc3c4c(cccc24)CC3)C1 (stereo not given) | 10
O=C(COC(=O)c1ccccc1)Nc1ccccc1N1CCOCC1 | 8
CC1=NN2C(=N)/C(=C\c3cc(C)n(-c4cccc(C)c4)c3C)C(=O)N=C2S1 | 19
CC1=CC(C)(C)n2c(O)c(N=NC(N)=S)c3cc(C)cc1c32 | 17
C=CCn1cc(/C=N/N2C(=O)C3C4C=CC(C4)C3C2=O)c2ccccc21 (stereo not given) | 1
Fc1ccc(CSc2ccc(-c3cccs3)nn2)cc1 | 19
CC(C)CN1CCN(Cc2ccc(CN3CCCCC3)s2)CC1CCO (stereo not given) | 10
NS(=O)(=O)c1ccc(O)c(N2C(=O)c3cccc4c(C(=O)c5ccccc5)ccc(c34)C2=O)c1 | -5
CN(C)c1ccc(CNc2ncn[nH]2)cc1 | 26
O=C(NCc1ccco1)C1CC(c2ccc(Cl)cc2)=NO1 (stereo not given) | 20
O=C(CSc1ncnc2c1oc1ccccc12)Nc1nccs1 | 4
Cc1ccc(C)c(N2N=C(C(=O)Nc3nccs3)CCC2=O)c1 | 17
COc1ccc(C(CCN2CCCCC2)c2c(OC)cc(OC)c3c(-c4ccccc4)cc(=O)oc23)cc1 (stereo not given) | 13
COc1ccc(S(=O)(=O)N2CCOCC2)cc1NC(=O)c1cccc2c(=O)c(C)c(-c3ccccc3)oc12 | 17
Cc1nc(Cl)c(S(N)(=O)=O)c(C)c1Cl | 7
COc1cc2c(cc1OC)C(C1C(=O)CCCC1=O)N(C(=O)CCl)CC2 (stereo not given) | 11
O=C(NC(=S)Nc1cccc(F)c1)c1cccc([N+](=O)[O-])c1 | 16
O=C(NN1C(=O)c2ccccc2C1=O)c1ccccc1[N+](=O)[O-] | 16
CCCCN1C=C(C(=O)OC)C(c2ccccc2Cl)C(C(=O)OC)=C1 | 9
Cc1nnc(SCc2ccc(C(=O)c3ccc(Cl)cc3)o2)n1-c1ccccc1 | 9
Cc1ccc(C(=O)NCCOc2cccc(C)c2)cc1 | 5
Cn1c(=O)c(C(=O)CSc2ccccc2)c(N)n(Cc2ccccc2)c1=O | 5
CCOC(=O)Nc1c(C)n(C)n(-c2ccccc2)c1=O | 7
Cc1nc(CC(C)C)cc(C(=O)N2CCCC(CNS(=O)(=O)c3cccs3)C2)n1 (stereo not given) | 9
COc1ccc(C2=NOC(CNC(N)=S)C2)cc1 (stereo not given) | 11
Cc1ccc(-c2csc(N(CC3CCCO3)C(=O)c3ccco3)n2)cc1 (stereo not given) | 13

Reprinted at random: three entries already listed
Compound | Biofilm kill mix
CN(C)c1ccc(CNc2ncn[nH]2)cc1 | 26
COc1cc2c(cc1OC)C(C1C(=O)CCCC1=O)N(C(=O)CCl)CC2 (stereo not given) | 11
O=C(NCc1ccco1)C1CC(c2ccc(Cl)cc2)=NO1 (stereo not given) | 20

The listing continues:
Compound | Biofilm kill mix
FC(F)(F)c1ccc(-c2noc(CN3CCCN(C4CCCCC4)CC3)n2)cc1 | 12
COc1cc(OC)c2c(=O)c(OC)c(-c3ccc(OC)c(OC)c3)oc2c1 | 19
CCOC(=O)/C(C#N)=C/Nc1ccsc1C(=O)OC | 10
COc1cccc(N2CC(C(=O)Nc3nnc(SCc4ccccn4)s3)CC2=O)c1 (stereo not given) | 18
COc1ccc(Cc2nnc(NS(=O)(=O)c3ccccc3)s2)cc1 | 19
CCCOC1CCCN(Cc2nc(-c3cnccn3)no2)C1 (stereo not given) | 7
CCN(Cc1ccccc1)C(=O)C1CCN(CC2CC=CCC2)CC1 (stereo not given) | 13
CCOC(=O)NC(=O)COC(=O)CNC(=O)c1ccc(OCC)c(OCC)c1 | 2
COc1ccc(C2NC(=O)NC(C)=C2[N+](=O)[O-])cc1OC (stereo not given) | 18
COC(C[C@@H]1O[C@@H]1[C@@H](O)[C@H](C)OCc1ccccc1)OC | 18
O=C(NCCc1c[nH]c2ccccc12)C(=O)Nc1ccccc1 | 10
CCOC(=O)N1CN(C(=O)OCC)CN(C(=O)OCC)C1 | -1
O=C1NC2(Nc3ccccc31)C(=O)Nc1ccc(Br)cc12 (stereo not given) | 8
COc1ccc(C(=O)N/N=C(\C)CC(=O)N2CCN(C=O)CC2)cc1 | 15
O=C(CSCC(=O)N1CCOCC1)Nc1nc(-c2ccccc2)cs1 | 18
CC(C)(C)NC(=O)CN(Cc1cccs1)C(=O)CCN1CCc2ccccc21 | 18
COC(=O)c1cc(C(=O)NCCN2C(=O)S/C(=C\c3cccs3)C2=O)cc([N+](=O)[O-])c1 | 14
CC(=O)N1Cc2cc(N)ccc2Oc2ccccc21 | 6
Cc1ccc(/C=C/C(=O)OCC(=O)NCCN2C(=O)CSC2=O)cc1 | 6
COc1ccc(CNC(=S)Nc2ccc(S(N)(=O)=O)cc2)cc1 | 8
CC(C)OC(=O)c1ccc(S(N)(=O)=O)o1 | 18
O=c1c2c(ncn1Cc1ccccc1)nc1n2CCC1 | 4
COc1ccc(OC)c(C2=NOC(C(=O)Nc3cc(C)on3)C2)c1 (stereo not given) | 13
O=C(Nc1ccc(F)cc1)c1csc(Cc2ccccc2)n1 | 15
COc1cc(NC(=O)c2ccccn2)cc(OC)c1OC | 5
COc1ccc(NC(=S)NNC(=O)c2cccs2)cc1 | -12
O=C(NCc1ccccc1)C1=C[C@H](C2CC2)C[C@H](OCc2ccc(CO)cc2)O1 | 13
O=C(CNc1ccc(Br)cc1)c1ccc(O)cc1 | 23
Cc1ccc(-n2nnnc2/C=C\Nc2cc(C)on2)cc1 | 1
CCc1c(C(=O)N/N=C/c2ccsc2)csc1C | 9
Cc1ccc(NC(=O)CSc2nnnn2-c2ccc3c(c2)OCO3)cc1C | 14
Cc1cccn2c(=O)c(/C=C(\C#N)C(=O)NCc3ccco3)c(N3CCC(C(N)=O)CC3)nc12 | 19
C=CCN=C1S/C(=C/c2ccc([N+](=O)[O-])cc2)C(=O)N1CC=C | 20
Cc1ccc(C(C)(C)C)c(OCCOCCN2CCCC2)c1 | -1
O=C(NCc1ccco1)c1ccc(-c2ccccc2Cl)o1 | 9
CCN(CC)S(=O)(=O)c1ccc(Cl)c(NC2=NCCCCC2)c1 | 7
Cc1ccc(-c2csc3ncnc(NS(=O)(=O)c4ccc(Cl)cc4)c23)cc1 | 17
Cc1ccc(S(=O)(=O)NCCC(=O)Nc2ccc(C)cc2C(=O)c2ccccc2)cc1 | 22
COCCN(CCOC)C(=O)Nc1ccc(Cl)cc1 | 14
CCN(CC)C(=O)Oc1ccc(Br)cc1C(=O)Nc1ccc(F)c(Cl)c1 | 12
O=C(CSc1nc(N2CCCCC2)nc(N2CCCCC2)n1)N1CCN(c2ccccc2)CC1 | 11
C=CCn1c(-c2cc(-c3ccccc3)sc2N)n[nH]c1=S | 8
COc1ccccc1CNc1nc(SC)ncc1CO | 8
O=[N+]([O-])c1ccc(CSc2nnc3ccccn23)cc1 | 19
CCOC(=O)c1nnn(CC(=O)N2N=C(c3cc(C)ccc3C)CC2c2ccc(OC)cc2)c1C(=O)OCC (stereo not given) | 11
CC(C)(C)NC(=O)C(OC(=O)c1cccs1)c1ccc(F)cc1 (stereo not given) | 10
CC(C)Cc1nnc(NC(=O)CS(=O)(=O)Cc2ccccc2)s1 | 9
COc1cccc2cc(C(C)N(CCCN3CCOCC3)C(=S)Nc3ccccc3C)oc12 (stereo not given) | 13
Cc1ccc(OCCC(=O)NCCc2ccc(S(N)(=O)=O)cc2)cc1 | 11
CC1(c2ccc3ccccc3c2)NC(=O)N(CC(=O)Nc2cccc(S(=O)(=O)N3CCOCC3)c2)C1=O (stereo not given) | 20
O=C(NCCOc1ccccc1)c1ccccc1[N+](=O)[O-] | 9
Cc1cc(S(=O)(=O)N(Cc2ccccc2Cl)c2ccc3c(c2)CCC3)ccc1-n1cnnn1 | 6
C=CCn1c(O)c(N=NC(=O)OC(C)(C)C)c2ccccc21 | 21
Brc1cc(Br)cc(CN2CCSCC2)c1 | 3
Cc1csc2c(N3CCC(C(=O)O)CC3)ncnc12 | 15
O=C(NC(=O)c1ccc(F)cc1F)Nc1ccc(Cl)cc1 | 23
O=C(Nc1cccc(-c2nc3ccccc3s2)c1)c1cccs1 | 11

Compound activity (PubChem)
